From PubChem
FGF22 binding = FGF22 (human) thermal shift binding; AID 651658; Q9HCT0; recombinant FGF22 thermal shift, SYPRO orange fluorescence; percent of sucrose octasulfate shift, DMSO zero; calls only at 9.99 µM; 340,000 tested, 1.5% active;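 active = melting point raised past a set limit in the mean and every replicate; three in four hits are not shown here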
Target sequence (Q9HCT0 whole entry, looked up): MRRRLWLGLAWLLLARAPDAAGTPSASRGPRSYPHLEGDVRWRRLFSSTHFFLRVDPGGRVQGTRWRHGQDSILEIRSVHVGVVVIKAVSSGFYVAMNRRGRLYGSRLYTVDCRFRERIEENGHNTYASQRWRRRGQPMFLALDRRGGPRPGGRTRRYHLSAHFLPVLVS
rRNA inh HTS = inhibits bacterial ribosomal RNA function over humanized ribosomes. E. coli WT GFP vs humanized-ribosome RFP mutants, fluorescence, 24 h; hits give low values; DMSO median 0, no signal -100. GFP signal change (wild-type ribosome), % (test concentration not listed). 350,000 tested, 1.6% active;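 active = significant combined selectivity score with lowered wild-type GFP, culture density cut under 30%, mutant RFP and density less affected; inactive = any of these conditions unmet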; note: one replicate is shown; some compounds called inactive have numbers as strong as hits
MLL AF4-AF9 inh = blocks AF4 peptide binding to human AF9; P42568; AlphaScreen, biotin-AF4 peptide binding to FLAG-AF9; inhibition, % at 10 µM; 350,000 tested, 0.47% active;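 active = every replicate reaching a set inhibition limit, whatever the replicate mean, cut at about 25% in these data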;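 note: 0% = plate neutral control median and 100% = total signal loss; the record names both 10 and 1 µM as test concentration; the first replicate is given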
Target sequence (P42568 whole entry, looked up): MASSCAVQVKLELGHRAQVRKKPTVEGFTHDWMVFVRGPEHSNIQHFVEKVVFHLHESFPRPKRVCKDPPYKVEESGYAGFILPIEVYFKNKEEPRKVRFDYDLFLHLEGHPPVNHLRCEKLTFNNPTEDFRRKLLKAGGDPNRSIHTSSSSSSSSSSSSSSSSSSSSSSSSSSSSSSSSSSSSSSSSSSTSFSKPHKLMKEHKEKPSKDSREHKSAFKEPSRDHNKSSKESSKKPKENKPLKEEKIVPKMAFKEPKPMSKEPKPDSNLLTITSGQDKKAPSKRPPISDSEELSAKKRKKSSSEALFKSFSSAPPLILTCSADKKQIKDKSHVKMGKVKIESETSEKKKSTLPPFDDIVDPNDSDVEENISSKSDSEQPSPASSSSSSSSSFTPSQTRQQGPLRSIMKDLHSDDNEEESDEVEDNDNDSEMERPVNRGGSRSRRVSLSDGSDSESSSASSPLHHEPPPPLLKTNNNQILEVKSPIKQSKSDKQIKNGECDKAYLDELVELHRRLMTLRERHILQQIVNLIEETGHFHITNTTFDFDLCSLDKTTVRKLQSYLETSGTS
rRNA inh HTS OD600 = recorded beside rRNA inh HTS, whose call it bears; OD600 change, %; measured here: OD600 growth;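 optical density of the mix in the first replicate; 0 = DMSO median and -100 = no signal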
rRNA inh HTS RFP = also measured in rRNA inh HTS; calls as there; RFP signal change, %; measured here: RFP humanized mutant strains;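 first replicate; 0 = DMSO median and -100 = no signal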
The depositor's hits bear a star; & = joins results of further samples. Some of the compounds tested (hit frequency here may not be typical).

For CC(C)NC(=O)N(C)C[C@H]1Oc2ccc(NC(=O)NC3CCCCC3)cc2CC(=O)N([C@@H](C)CO)C[C@H]1C the results were FGF22 binding inactive, rRNA inh HTS 2, MLL AF4-AF9 inh -3.5, rRNA inh HTS OD600 5 and rRNA inh HTS RFP -2.1.
Cc1ccc(S(=O)(=O)N(C)C[C@@H]2OCCCC[C@@H](C)Oc3ccc(NS(=O)(=O)c4ccc(Cl)cc4)cc3C(=O)N([C@@H](C)CO)C[C@H]2C)cc1 was read as FGF22 binding inactive, rRNA inh HTS -2, MLL AF4-AF9 inh -3.1, rRNA inh HTS OD600 1 and rRNA inh HTS RFP -0.6.
CCCCN1C(=O)CC2CCOC21C (centres undefined) was read as FGF22 binding inactive, rRNA inh HTS 13, MLL AF4-AF9 inh -3.5, rRNA inh HTS OD600 13 and rRNA inh HTS RFP -0.4.
Screening CCN(CC(=O)Nc1ccc(NC(C)=O)cc1)C(=O)C1CC1 returned FGF22 binding inactive, rRNA inh HTS 19, MLL AF4-AF9 inh -1.4, rRNA inh HTS OD600 15 and rRNA inh HTS RFP 4.8.
`CCNC(=O)[C@@H]1[C@@H](CO)[C@@H]2Cn3c(ccc(-c4ccccc4F)c3=O)[C@@H]2N1CC` gave FGF22 binding inactive, rRNA inh HTS -1, MLL AF4-AF9 inh -1.9, rRNA inh HTS OD600 -1 and rRNA inh HTS RFP -0.6.
Screening C[C@H]1CN([C@@H](C)CO)S(=O)(=O)c2ccc(Br)cc2O[C@@H]1CN(C)Cc1ccccc1 returned FGF22 binding inactive, rRNA inh HTS -27&-57, MLL AF4-AF9 inh 2.9&5.7&0.5, rRNA inh HTS OD600 -79&-76 and rRNA inh HTS RFP -19&-19.
Screening Cc1ccc(S(=O)(=O)N(C)C[C@@H]2OCCCC[C@@H](C)Oc3ccc(NC(=O)Nc4ccc(C(F)(F)F)cc4)cc3C(=O)N([C@@H](C)CO)C[C@H]2C)cc1 returned FGF22 binding inactive, rRNA inh HTS 1, MLL AF4-AF9 inh -3.4, rRNA inh HTS OD600 0 and rRNA inh HTS RFP -7.1.
`CO[C@@H](CN(C)C(=O)c1ccc2c(c1)OCO2)[C@H](C)CN([C@@H](C)CO)S(=O)(=O)c1ccc(Cl)cc1` gave FGF22 binding inactive, rRNA inh HTS 1, MLL AF4-AF9 inh 0.6, rRNA inh HTS OD600 -2 and rRNA inh HTS RFP -1.2.
For COc1ccc(NC(=O)N(C)C[C@@H]2Oc3c(NC(=O)NC4CCCCC4)cccc3C(=O)N([C@H](C)CO)C[C@@H]2C)cc1 the results were FGF22 binding inactive, rRNA inh HTS 0, MLL AF4-AF9 inh 1.5, rRNA inh HTS OD600 4 and rRNA inh HTS RFP -0.6.
For C[C@@H]1CN([C@H](C)CO)C(=O)c2cc(-c3cccnc3)cnc2O[C@@H]1CN(C)C(=O)Nc1ccccc1 the results were FGF22 binding inactive, rRNA inh HTS 5, MLL AF4-AF9 inh -1.1, rRNA inh HTS OD600 13 and rRNA inh HTS RFP -1.9.
Screening COc1ccccc1-c1ccc([C@@H]2[C@@H](CO)N(C(=O)CN(C)C)[C@H]2C#N)cc1 returned FGF22 binding inactive, rRNA inh HTS -2, MLL AF4-AF9 inh -1.1, rRNA inh HTS OD600 4 and rRNA inh HTS RFP -0.2.
For COc1ccc(NC(=O)N(C)C[C@H]2Oc3ncc(Br)cc3C(=O)N([C@H](C)CO)C[C@@H]2C)cc1 the results were FGF22 binding inactive, rRNA inh HTS -1&-1, MLL AF4-AF9 inh 0.3&-15, rRNA inh HTS OD600 4&17 and rRNA inh HTS RFP -3.3&-0.6.
For Cc1noc(C)c1NC(=O)N(C)C[C@@H]1Oc2ccc(NC(=O)Nc3cccc4ccccc34)cc2C(=O)N([C@H](C)CO)C[C@@H]1C the results were FGF22 binding inactive, rRNA inh HTS -5, MLL AF4-AF9 inh 7.2, rRNA inh HTS OD600 -4 and rRNA inh HTS RFP 1.5.
Screening COc1ccc2c3c([nH]c2c1)[C@H](CO)N(S(=O)(=O)c1ccccc1)CC31CCN(C)CC1 returned FGF22 binding inactive, rRNA inh HTS 0, MLL AF4-AF9 inh 13, rRNA inh HTS OD600 -2 and rRNA inh HTS RFP 2.4.
`COC(=O)CCN(Cc1cccc(OC)c1OC)S(=O)(=O)c1ccccc1Br` gave FGF22 binding inactive, rRNA inh HTS -2, MLL AF4-AF9 inh -0.4, rRNA inh HTS OD600 -30 and rRNA inh HTS RFP -8.4.
Screening Cc1cc(-c2nc3ncccc3o2)ccc1NC(=O)c1ccc([N+](=O)[O-])o1 returned FGF22 binding inactive, rRNA inh HTS 3, MLL AF4-AF9 inh -6.7, rRNA inh HTS OD600 3 and rRNA inh HTS RFP 1.4.
CC(C)NC(=O)NCC[C@@H]1CC[C@H](NC(=O)CN(C)C)[C@H](CO)O1 was read as FGF22 binding inactive, rRNA inh HTS 0, MLL AF4-AF9 inh 3.0, rRNA inh HTS OD600 -1 and rRNA inh HTS RFP -0.7.
`C[C@H]1CCCCO[C@H](CN(C)Cc2ccc(C(F)(F)F)cc2)[C@@H](C)CN([C@@H](C)CO)C(=O)c2cc(NC(=O)CCCN(C)C)ccc2O1` gave FGF22 binding inactive, rRNA inh HTS 5, MLL AF4-AF9 inh 4.0, rRNA inh HTS OD600 -2 and rRNA inh HTS RFP 6.7.
`C[C@@H]1CN([C@H](C)CO)C(=O)c2cccc(NC(=O)Nc3ccc4c(c3)OCO4)c2O[C@@H]1CN(C)Cc1ccc(Oc2ccccc2)cc1` gave FGF22 binding inactive, rRNA inh HTS -10, MLL AF4-AF9 inh 4.4, rRNA inh HTS OD600 -13 and rRNA inh HTS RFP 0.8.
Screening N#C[C@H]1[C@@H](c2ccc(C#CCC3CCCC3)cc2)[C@H](CO)N1C(=O)CN1CCOCC1 returned FGF22 binding active, rRNA inh HTS -23, MLL AF4-AF9 inh 6.7, rRNA inh HTS OD600 -63 and rRNA inh HTS RFP 8.0.
For COc1ccc(S(=O)(=O)N(C)C[C@H]2Oc3c(NC(=O)C4CCOCC4)cccc3C(=O)N([C@@H](C)CO)C[C@@H]2C)cc1 the results were FGF22 binding inactive, rRNA inh HTS 1, MLL AF4-AF9 inh -1.5, rRNA inh HTS OD600 3 and rRNA inh HTS RFP -3.9.
Screening Cc1noc(C)c1C(=O)N1CCC1(C)C(=O)NS(=O)(=O)c1ccc(F)cc1F (centres undefined) returned FGF22 binding inactive, rRNA inh HTS 14, MLL AF4-AF9 inh -3.3, rRNA inh HTS OD600 17 and rRNA inh HTS RFP -0.6.
For Cc1ccc(C(=O)C2C(=O)C3CCC2C3)cc1 (centres undefined) the results were FGF22 binding inactive, rRNA inh HTS 3, MLL AF4-AF9 inh -1.8, rRNA inh HTS OD600 10 and rRNA inh HTS RFP 1.4.
CN(C)c1ccc2c(c1)[C@@H]1C[C@@H](CC(=O)NCCN3CCCCC3)O[C@H](CO)[C@@H]1O2 was read as FGF22 binding inactive, rRNA inh HTS 8, MLL AF4-AF9 inh 17, rRNA inh HTS OD600 17 and rRNA inh HTS RFP 1.8.
Cc1ccc(S(=O)(=O)N(C)C[C@H]2Oc3c(NC(=O)Nc4ccc(C(F)(F)F)cc4)cccc3C(=O)N([C@H](C)CO)C[C@@H]2C)cc1 was read as FGF22 binding inactive, rRNA inh HTS 1, MLL AF4-AF9 inh 0.0, rRNA inh HTS OD600 -3 and rRNA inh HTS RFP 1.2.
For C[C@H]1CN([C@@H](C)CO)C(=O)c2cccc(N(C)C)c2O[C@@H]1CN(C)C(=O)Nc1ccc2c(c1)OCO2 the results were FGF22 binding inactive, rRNA inh HTS 3, MLL AF4-AF9 inh -1.5, rRNA inh HTS OD600 2 and rRNA inh HTS RFP -1.5.
CC(C)NC(=O)N(C)C[C@H]1OCCCC[C@H](C)Oc2ccc(NS(=O)(=O)c3ccccc3)cc2C(=O)N([C@@H](C)CO)C[C@@H]1C was read as FGF22 binding inactive, rRNA inh HTS -4, MLL AF4-AF9 inh 2.0, rRNA inh HTS OD600 -4 and rRNA inh HTS RFP 0.8.
Screening CCCC(O)C#Cc1cnc2c(c1)C(=O)N([C@H](C)CO)C[C@H](C)[C@H](CN(C)C(=O)Nc1ccc3c(c1)OCO3)O2 (some centres undefined) returned FGF22 binding inactive, rRNA inh HTS -2, MLL AF4-AF9 inh -0.4, rRNA inh HTS OD600 -1 and rRNA inh HTS RFP -3.0.
O=C(NC1CCCCC1)C(c1cccc2ccccc12)n1c(=O)c(-c2cc3ccccc3[nH]2)nc2ccccc21 (centres undefined) was read as FGF22 binding inactive, rRNA inh HTS 10, MLL AF4-AF9 inh -15, rRNA inh HTS OD600 7 and rRNA inh HTS RFP 2.0.
For COc1ccc(NC(=O)N(C)C[C@H]2OCCCC[C@@H](C)Oc3ccc(NC(=O)Cc4ccccc4)cc3C(=O)N([C@H](C)CO)C[C@@H]2C)cc1 the results were FGF22 binding inactive, rRNA inh HTS 2, MLL AF4-AF9 inh -2.5, rRNA inh HTS OD600 -12 and rRNA inh HTS RFP -0.3.
Screening CCOC(=O)C1=CCN(S(=O)(=O)c2cccc(Cl)c2)C1c1ccc(F)cc1 (centres undefined) returned rRNA inh HTS -8, MLL AF4-AF9 inh -5.2, rRNA inh HTS OD600 -30 and rRNA inh HTS RFP -10.
Cc1noc(C)c1NC(=O)N(C)C[C@H]1Oc2ccc(NC(=O)Nc3ccc4c(c3)OCO4)cc2CC(=O)N([C@H](C)CO)C[C@@H]1C was read as FGF22 binding inactive, rRNA inh HTS -1, MLL AF4-AF9 inh -10, rRNA inh HTS OD600 5 and rRNA inh HTS RFP -2.0.
Cc1cc(C(=O)Nc2cccc3c2O[C@H](CN(C)Cc2ccncc2)[C@@H](C)CN([C@H](C)CO)C3=O)n(C)n1 was read as FGF22 binding inactive, rRNA inh HTS 0, MLL AF4-AF9 inh -1.6, rRNA inh HTS OD600 -5 and rRNA inh HTS RFP -0.6.
For CCOc1ccc(S(=O)(=O)N2CCCCC2)cc1NC(=O)c1ccccc1 the results were FGF22 binding inactive, rRNA inh HTS 9, MLL AF4-AF9 inh 0.9, rRNA inh HTS OD600 1 and rRNA inh HTS RFP 1.9.
Screening COc1cc(C2C3=C(COC3=O)Oc3cc4c(cc32)OCO4)cc(OC)c1OC(C)=O (centres undefined) returned FGF22 binding inactive, rRNA inh HTS 1, MLL AF4-AF9 inh 0.6, rRNA inh HTS OD600 6 and rRNA inh HTS RFP -1.7.
Screening Cc1ccc(S(=O)(=O)N[C@H]2CC[C@@H](CC(=O)N3CCc4ccccc4C3)O[C@@H]2CO)cc1 returned FGF22 binding inactive, rRNA inh HTS -4, MLL AF4-AF9 inh -6.4, rRNA inh HTS OD600 -3 and rRNA inh HTS RFP -1.4.
Screening COc1ccc(C(=O)OCC(=O)N2CCN(C(=O)c3ccco3)CC2)c(OC)c1OC returned FGF22 binding inactive, rRNA inh HTS 3, MLL AF4-AF9 inh -0.7, rRNA inh HTS OD600 1 and rRNA inh HTS RFP 3.4.
For CCCNC(=O)N(C)C[C@H]1Oc2cc(Br)ccc2S(=O)(=O)N([C@@H](C)CO)C[C@@H]1C the results were FGF22 binding inactive, rRNA inh HTS 6&5, MLL AF4-AF9 inh -1.5&0.9&0.7, rRNA inh HTS OD600 13&15 and rRNA inh HTS RFP -0.6&-3.1.

Among those listed so far, these have fluorine:
`CCNC(=O)[C@@H]1[C@@H](CO)[C@@H]2Cn3c(ccc(-c4ccccc4F)c3=O)[C@@H]2N1CC` gave FGF22 binding inactive, rRNA inh HTS -1, MLL AF4-AF9 inh -1.9, rRNA inh HTS OD600 -1 and rRNA inh HTS RFP -0.6.
Screening Cc1ccc(S(=O)(=O)N(C)C[C@@H]2OCCCC[C@@H](C)Oc3ccc(NC(=O)Nc4ccc(C(F)(F)F)cc4)cc3C(=O)N([C@@H](C)CO)C[C@H]2C)cc1 returned FGF22 binding inactive, rRNA inh HTS 1, MLL AF4-AF9 inh -3.4, rRNA inh HTS OD600 0 and rRNA inh HTS RFP -7.1.
`C[C@H]1CCCCO[C@H](CN(C)Cc2ccc(C(F)(F)F)cc2)[C@@H](C)CN([C@@H](C)CO)C(=O)c2cc(NC(=O)CCCN(C)C)ccc2O1` gave FGF22 binding inactive, rRNA inh HTS 5, MLL AF4-AF9 inh 4.0, rRNA inh HTS OD600 -2 and rRNA inh HTS RFP 6.7.
Screening Cc1noc(C)c1C(=O)N1CCC1(C)C(=O)NS(=O)(=O)c1ccc(F)cc1F (centres undefined) returned FGF22 binding inactive, rRNA inh HTS 14, MLL AF4-AF9 inh -3.3, rRNA inh HTS OD600 17 and rRNA inh HTS RFP -0.6.
Cc1ccc(S(=O)(=O)N(C)C[C@H]2Oc3c(NC(=O)Nc4ccc(C(F)(F)F)cc4)cccc3C(=O)N([C@H](C)CO)C[C@@H]2C)cc1 was read as FGF22 binding inactive, rRNA inh HTS 1, MLL AF4-AF9 inh 0.0, rRNA inh HTS OD600 -3 and rRNA inh HTS RFP 1.2.
Screening CCOC(=O)C1=CCN(S(=O)(=O)c2cccc(Cl)c2)C1c1ccc(F)cc1 (centres undefined) returned rRNA inh HTS -8, MLL AF4-AF9 inh -5.2, rRNA inh HTS OD600 -30 and rRNA inh HTS RFP -10.
